Screens from PubChem.
TRPML1 blocker: inhibitors of human TRPML1 channel; TRPML1-inducible cells, Ca2+ dye fluorescence, FDSS; stronger effect = lower value; inhibition of EC80 agonist-evoked calcium signal; Q9GZU1; 390,000 compounds, 0.02% hits; AID 624415; activity change, negative = inhibition, % (no concentration beside the values); in the data active means activity change below about -50%; inconclusive means about -30% to -50%; inactive means above about -30%;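 further: stimulus is agonist 54-4 at its EC80 concentration; on the % scale 0 is the no-effect control and ±100 the full control effect; compound concentration not given in the record; the text of the record puts the active cut at -80%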
Target sequence (Q9GZU1 whole entry, looked up): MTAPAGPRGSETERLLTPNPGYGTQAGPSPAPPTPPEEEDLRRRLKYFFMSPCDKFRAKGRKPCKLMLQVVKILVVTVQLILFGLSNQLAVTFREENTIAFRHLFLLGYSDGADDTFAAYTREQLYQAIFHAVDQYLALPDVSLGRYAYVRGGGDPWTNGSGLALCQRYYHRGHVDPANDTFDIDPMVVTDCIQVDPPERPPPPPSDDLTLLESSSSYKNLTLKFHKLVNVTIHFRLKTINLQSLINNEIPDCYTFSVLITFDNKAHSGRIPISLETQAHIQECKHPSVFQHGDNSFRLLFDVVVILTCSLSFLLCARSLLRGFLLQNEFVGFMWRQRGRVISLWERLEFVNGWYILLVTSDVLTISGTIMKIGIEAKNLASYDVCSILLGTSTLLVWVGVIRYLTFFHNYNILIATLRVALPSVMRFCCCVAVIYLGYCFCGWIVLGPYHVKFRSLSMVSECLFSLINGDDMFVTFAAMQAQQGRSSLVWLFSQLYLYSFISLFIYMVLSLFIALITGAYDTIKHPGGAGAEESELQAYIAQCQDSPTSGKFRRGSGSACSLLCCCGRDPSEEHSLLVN
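Tet-induced TRPML1-DL cells loaded with Ca8 no-wash calcium dye were read kinetically on FDSS. Compound addition was followed by EC80 agonist 54-4 (4 uM final); inhibition was read over 110 s.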
TRPML1 agonist: agonists of human TRPML1 channel; Q9GZU1; 410,000 compounds, 0.12% hits; activation, % (test concentration not listed); TRPML1-expressing cells, Ca2+ dye fluorescence, FDSS; host cell line not named in the record; reference of the full effect not given here; in the data active = activation above about 50%; inconclusive = about 30% to 50%; inactive = below about 30%; further: 0% is about no effect; the text of the record puts the active cut at 80%
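Agonist activity was taken from a 110 s kinetic Ca2+ dye read on the FDSS after pinning compounds onto TRPML1-DL cells. The cells were seeded at 1,500/well with Tet inducer, incubated about 16 h, then dye-loaded at room temperature.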
D2 agonist: human D2 receptor agonism in beta-arrestin assay | DiscoveRx PathHunter D2 beta-arrestin, luminescence, 90 min; 100% = 57 uM dopamine signal | 360,000 compounds, 0.084% hits | activation, % (test concentration not listed) | P14416 | AID 624465; in the data active = activation above about 40%; inconclusive = about 15% to 40%; inactive = below about 15%; further: compound concentration not given in the record; the text of the record calls up to 30% inactive
Target sequence (P14416 whole entry, looked up): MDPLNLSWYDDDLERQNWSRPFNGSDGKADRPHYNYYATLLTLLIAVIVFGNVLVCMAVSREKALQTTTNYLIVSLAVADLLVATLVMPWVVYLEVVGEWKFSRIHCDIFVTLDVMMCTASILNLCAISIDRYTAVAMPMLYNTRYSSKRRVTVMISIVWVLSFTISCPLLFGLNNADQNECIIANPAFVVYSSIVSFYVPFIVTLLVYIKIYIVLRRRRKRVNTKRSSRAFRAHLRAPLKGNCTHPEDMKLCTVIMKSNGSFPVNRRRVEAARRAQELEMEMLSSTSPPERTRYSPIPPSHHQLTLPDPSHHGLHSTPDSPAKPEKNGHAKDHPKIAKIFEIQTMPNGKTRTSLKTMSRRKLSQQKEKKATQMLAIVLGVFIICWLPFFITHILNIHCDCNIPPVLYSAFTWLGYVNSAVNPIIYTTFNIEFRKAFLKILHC
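DiscoveRx PathHunter D2 beta-arrestin cells (2,100/well) attached overnight, then compound-stimulated 90 min at 37 C in HBSS/10 mM HEPES/0.1% Tween-20 buffer; beta-galactosidase complementation read by luminescence after 1 h at ambient temperature. Dopamine 57 uM final (EC100) as control.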
D2 potentiator: human D2 receptor positive allosteric modulation; DiscoveRx D2 beta-arrestin cells, luminescence, 90 min; 100% = 57 uM dopamine signal; potentiation, % (concentration not given with the values); P14416; 360,000 compounds, 0.23% hits; active = potentiation of 50% or more; inconclusive = 30% to 50%; inactive = 30% or less;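 further: tested on top of an EC20 dose of dopamine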
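PathHunter beta-arrestin assay in DiscoveRx D2 cells. Compounds were added with an EC20 of dopamine (50 nM final) for 90 min at 37 deg C. Luminescence was read 1 h after detection reagent, with 57 uM dopamine as the EC100 control.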
Six1-Eya2 blk: inhibitors of human Six1/Eya2 interaction. activity change, % (test concentration not listed). Q15475+O00167. AlphaScreen GST-Six1/His-Eya2 binding, biochemical; stronger effect = lower value; control for the full effect not named in the record. 360,000 compounds, 0.56% hits; in the data active = activity change below about -65%; inconclusive = about -30% to -65%; inactive = above about -30%; further: on the % scale 0 is the no-effect control and ±100 the full control effect
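GST-Six1 + His-Eya2 (5X stock: 250/500 nM); Tris pH 8.0, 300 mM NaCl, 0.05% BSA, 0.02% Tween 20; GSH donor/Ni acceptor beads; 1 h 37 °C dark; AlphaScreen readout.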
PINK1 expr mod: modulators of PINK1 expression; PINK1 immunofluorescence, high-content cytometry, 24 h; Potency, µM (doses to about 76.6 µM), inactives show at the highest dose activation (PINK1 increase), actives largely listed as activators; 410,000 compounds, 0.2% hits; active = well fitted activation curve with a large enough effect; inconclusive = small, poorly fitted or top-dose-only effect; inactive = flat fitted curve, though single readings scatter; cell line not stated here;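 further: potency means the concentration at half of the fitted maximal effect; % of control where 0% means no effect; nearly all actives have a fitted effect of over 65% in size; a mitochondrial uncoupler was the plate control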
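Cells are seeded, rested 12 hours, then given compound at five concentrations or DMSO for 24 hours. After fixation, blocking and antibody staining, PINK1 amount and mitochondrial localization are scored; CCCP serves as control.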
* hit, by the source's call; ? = inconclusive; . = no result given; & = joins results of further samples; [ ] = another dose, or the depositor's remark.

Value order – TRPML1 blocker | TRPML1 agonist | D2 agonist | D2 potentiator | Six1-Eya2 blk | PINK1 expr mod
O=[N+]([O-])c1cc(-c2nc(-c3ccncc3)no2)ccc1Cl
    29 | 0.3 | 1.8 | -1 | 1 | -3.2%
CCCc1nnc(NC(=O)CCC(=O)N2CCN(Cc3cc(F)ccc3OC)CC2)s1
    -2 | 3.1 | 1.1 | -16 | -2 | -1.3%
O=C(NCc1ccco1)c1ccc2ccccc2n1
    9 | -0.9 | -3.3 | -7 | -5 | 0.4%
COc1cccc(C(=O)Nc2cccc(OCC(=O)c3ccccc3)c2)c1
    -30 | 0.7 | 1.6 | -6 | 12 | 0.0%
CCN1CC(O)=C(c2nc3ccccc3s2)C1=N
    -16 | -0.2 | -4.0 | 16 | 0 | 0.8%
Cc1c(=O)n(OCc2cccc(F)c2)c2ccccc2[n+]1[O-]
    5 | -0.6 | 1.2 | 16 | 12 | 2.0%
CC(C)OCCCNC(=O)c1ccc2c(c1)N(Cc1c(F)cccc1Cl)C(=O)c1ccccc1S2
    1 | -0.4 | . | . | . | -0.9%
CN(C)CCN1C(=O)C(=O)/C(=C(/O)c2ccc(S(=O)(=O)N3CCOCC3)cc2)C1c1ccc(Br)cc1 (configuration not stated)
    9 | 0.3 | -2.0 | 13 | 0 | 1.8%
CCOC(=O)C(C)(C)N(Cc1cccc(C)c1)S(=O)(=O)c1ccc(Cl)c([N+](=O)[O-])c1
    26 | 1.3 | 7.6 | -11 | -12 | -1.9%
O=C(/C=C\Nc1ccc(S(=O)(=O)Nc2ncccn2)cc1)c1ccccc1
    -20 | -0.5 | -3.0 | -2 | 10 | 2.4%
COC(=O)c1c(-c2ccc(Cl)cc2)noc1N1CCN(c2ccc(C)cc2C)CC1
    3 | -0.9 | . | . | . | -0.6%
O=C(c1ccc(S(=O)(=O)N2CCCC2)cc1)N1CCCCC1
    4 | -0.2 | -0.1 | 7 | -5 | 1.5%
CCCOc1ccc(C(=O)NCC(c2cccs2)N(C)C)cc1OC (configuration not stated)
    -12 | 0.3 | -2.6 | -35 | -8 | 2.8%
CCN1CCN(CCCNC(=O)C2CCCN(c3nnc(-n4cccc4)s3)C2)CC1 (configuration not stated)
    -5 | -0.8 | -4.1 | -5 | -6 | -2.3%
Cc1ccc(Nc2nc(N3CCOCC3)nc(N3CCOCC3)n2)cc1Cl
    3 | -0.8 | -4.0 | -8 | -3 | -0.9%
O=C(O)c1ccc(N(Cc2ccccc2)S(=O)(=O)c2ccccc2)cc1
    -6&-2 | 0.3&-0.8 | 0.4&-3.1 | 0&2 | 6&2 | 0.8%&-0.5%
CCOc1ccc(NC(=O)CSc2nnc(C34CC5CC(CC(C5)C3)C4)n2C)cc1
    1 | -0.3 | -2.9 | -5 | -1 | .
CCC1S/C(=N/N=C/c2ccco2)N(Cc2ccccc2C)C1=O (configuration not stated)
    9 | 6.7 | -4.2 | -6 | 0 | -0.1%
COc1ccc(NC(=O)Cn2ncn3nc(-c4ccc(OC)cc4)cc3c2=O)cc1
    -3 | -0.5 | 0.3 | 6 | -5 | 16%
O=C(NCc1cccs1)C1(S(=O)(=O)c2ccccc2)CC=CC1
    -13 | -0.5 | -2.9 | -3 | 1 | -0.1%
O=C(CN1C(=O)c2ccccc2C1=O)Nc1nccs1
    3 | 0.9 | -5.2 | -6 | -2 | 2.2%
C/C(=N/NC(=O)CNC(=O)c1cccnc1)c1ccc(Cl)c(Cl)c1
    22 | 0.1 | -1.9 | -13 | -2 | -0.9%
Cc1cccc2c(=O)oc(-c3ccccc3Cl)nc12
    -7 | 1.1 | 1.9 | -5 | 2 | 3.0%
COc1ccc(C(C)=O)cc1CN(C)C
    -8 | 3.8 | -2.7 | -10 | 2 | 2.7%
CCCCOC(=O)c1nc(Cl)c(Cl)c(N)c1Cl
    -2 | -0.7 | -7.0 | 2 | 3 | 1.6%
O=C(Nc1cccc(S(=O)(=O)N2CCCCC2)c1)c1ccc2ncsc2c1
    37 | 0.9 | 0.2 | -14 | ? | -0.8%
Nc1c(C(=O)NCc2ccco2)nnn1Cc1ccccc1
    6 | 0.3 | -2.3 | 10 | -1 | 2.8%[38.3 µM]
O=c1c2ccccc2nc(/C=C/c2cccc(Br)c2)n1CCCO
    2 | 0.1 | -8.4 | 1 | -3 | 1.4%
C(=NNC1=NCCN1)c1ccnc2ccccc12
    . | -0.2 | -1.7 | -6 | -5 | 0.5%
CCC(C)(C)NC(=O)C(c1cccc(OC)c1OC)N(C(=O)CCC(=O)Nc1cc(C)on1)C(C)C (configuration not stated)
    -4 | -1.7 | -5.2 | -7 | 1 | 5.2%
CC(C)c1ccc(C(N)=S)cc1
    -5 | 0.9 | -6.4 | -5 | -8 | 0.0%
Nc1cc(=O)[nH]c(SCC(=O)Nc2ccc3c(c2)CCC3)n1
    9 | -0.2 | 1.0 | -7 | 1 | 8.5%
O=C(c1ccccc1)c1cnc(-c2ccc(Cl)cc2)s1
    13 | -0.6 | -0.6 | -16 | -1 | .
CCCN1CCN(C(=S)Nc2ccc3nc(N4CCN(CC)CC4)cc(C)c3c2)CC1
    23 | -0.1 | -1.4 | -15 | -1 | 5.2%
O=C1C=C(c2ccc3ccccc3c2)C[C@@H](c2ccc(F)cc2)C1
    -6 | -0.1 | -2.6 | -10 | 0 | 0.2%
COc1ccccc1-c1cc(C(=O)Nc2ccccc2C(F)(F)F)no1
    -18 | -0.8 | . | . | . | -0.1%
O=C(NC1CCS(=O)(=O)C1)c1ccc2c(c1)OCO2 (configuration not stated)
    -5 | -0.8 | -1.9 | -16 | 9 | 1.2%
O=C(/C=C/c1ccccc1)Nn1c(-c2cccs2)nc2ccccc2c1=O
    -6 | 2.1 | -3.8 | -3 | -4 | -1.3%
O=S(=O)(c1cc(F)ccc1F)N1CCC2(CC1)OCCO2
    1 | -0.7 | -2.5 | -5 | 12 | 0.1%
COc1ccc2nc(NC(=O)CCc3cc(OC)c(OC)c(OC)c3)sc2c1
    2 | 0.3 | 5.1 | 12 | -1 | 2.6%
COc1ccc(-c2n[nH]c(=S)n2Cc2ccco2)cc1
    1 | -0.3 | -5.2 | -6 | -1 | 1.6%[38.3 µM]
COc1ccccc1C1c2ccc3ccccc3c2Oc2ncn(CCN(C)C)c(=N)c21 (configuration not stated)
    1 | -1.2 | -0.4 | -22 | 1 | -3.8%
O=[N+]([O-])c1ccc2c(c1Nc1ccccc1)=NC1(CCCCC1)N=2
    -8 | -0.1 | 4.4 | 10 | ? | 0.6%
CCCC1C(c2ccccc2)C(C#N)(C#N)C2(C#N)CC1(N)NC2=O (configuration not stated)
    10 | 0.0 | 0.2 | 0 | 5 | 0.6%
O=C(NCc1ccco1)c1cc2nc(-c3cccs3)cc(C(F)(F)F)n2n1
    11 | 1.8 | -1.9 | -16 | -7 | 3.1%[38.3 µM]
Cc1nnnn1/C(=C\c1ccccc1)C(=O)OCC(=O)N1CC2(C)CC1CC(C)(C)C2 (configuration not stated)
    -11 | 0.1 | 1.6 | 4 | -2 | -0.4%
CC(C)(C)NC(=O)c1cccc(NC(=O)c2cccc(O)c2)c1
    0 | -0.2 | -1.8 | -3 | -7 | .
N#C/C(=C\c1ccc(F)cc1)C(=O)NC1CCS(=O)(=O)C1 (configuration not stated)
    -6 | 1.1 | -0.7 | -5 | -2 | -1.5%
O=C(Cn1c(=O)n(CC2CCCO2)c(=O)c2ccccc21)N1CCN(c2ccccc2)CC1 (configuration not stated)
    0 | 0.4 | -0.8 | -2 | -3 | 5.0%
Cc1nc2ccccn2c1C(=O)N=Nc1c(O)n(CCC(C)C)c2ccccc12
    -25 | 0.7 | 0.9 | -2 | 3 | 9.0%
O=C1[C@@H]2Cc3c([nH]c4ccccc34)CN2C(=O)CN1CCO
    1 | 0.1 | -3.6 | -4 | 0 | 4.1%
C[C@@H]1CN([C@@H](C)CO)C(=O)c2cccc(NS(C)(=O)=O)c2O[C@H]1CN(C)C(=O)Nc1ccc(F)cc1
    3 | -0.6 | -2.0 | -7 | 4 | 1.7%
O=C1NC[C@@H](CCCCN2C[C@H](Cc3ccc(O)cc3)N(CCc3ccccc3)C(=O)C2=O)N(CC2CCCCC2)C1=O
    . | -0.4 | . | . | 5 | 0.2%
COc1ccc2c(c1)N(C)C(=O)CC(c1ccccc1)=N2
    7 | 2.4 | -2.8 | 1 | -7 | -1.7%
Cc1nn(Cc2ccc(F)cc2Cl)c(C)c1[N+](=O)[O-]
    12 | 2.1 | 2.4 | -3 | 5 | -0.9%
O=C(OCc1nc2ccc(Cl)cc2n1CCO)c1ccc2c(c1)OCO2
    1 | 1.9 | -1.7 | -4 | -6 | 0.0%
CCCC1=Nc2cc(C(=O)NCc3ccc(OC)cc3)ccc2Sc2ccc(C)cc21
    -7 | 0.6 | . | . | . | 5.3%
c1ccc2nc(N3CCCC3)c(N3CCCC3)nc2c1
    -4 | 2.1 | 1.1 | -18 | 108 | -1.8%
CN(c1ccc(OCC(=O)OCC(=O)Nc2ccc(Br)cc2)cc1)S(=O)(=O)c1cccs1
    30 | 6.9 | 0.7 | -8 | -2 | 0.2%
CC(C)c1ccc(S(=O)(=O)N2CCN(C(C)C(=O)Nc3ccccc3-c3ccccc3)CC2)cc1 (configuration not stated)
    -22 | 0.8 | -4.7 | -9 | 2 | 2.5%

(more compounds)
Value order – TRPML1 blocker | TRPML1 agonist | D2 agonist | D2 potentiator | Six1-Eya2 blk | PINK1 expr mod
Cc1cc(-c2nn(-c3ccccc3F)cc2CN2CCC(O)CC2)c(C)s1
    -5 | -0.1 | -4.4 | -22 | -6 | 0.0%
CCn1c(=O)n(CC)c2cc(N3CCCC3)c(NC(=O)Nc3cc(C)cc(C)c3)cc21
    17 | 2.0 | . | . | . | 0.4%
CC(=O)c1cccc(NC(=O)CN(C)S(=O)(=O)c2ccccc2)c1
    -13 | 0.2 | 1.3 | -13 | 3 | -1.1%
Cc1ccc(NCC(=O)N/N=C\c2ccc([N+](=O)[O-])o2)cc1
    19 | 0.3 | 7.7 | 26 | -8 | 1.6%[38.3 µM]
O=C(NN1C(=O)C2C3C=CC(C4CC34)C2C1=O)c1ccc(Br)cc1 (configuration not stated)
    13 | -1.3 | -5.9 | -8 | 6 | 2.1%
Cc1nnc(SCC(=O)NCc2ccc3c(c2)OCO3)n1C
    11 | 0.2 | -4.4 | -6 | 5 | -2.1%
Cc1c(C(=O)c2ccc(Br)cc2)c(=O)n(C)c(=O)n1C
    -2 | -0.7 | -0.1 | -1 | 36 | 3.9%

Exported with each value named: 2 of the compounds above.
CC(=O)c1cccc(NC(=O)CN(C)S(=O)(=O)c2ccccc2)c1
  TRPML1 blocker: -13 | TRPML1 agonist: 0.2 | D2 agonist: 1.3 | D2 potentiator: -13 | Six1-Eya2 blk: 3 | PINK1 expr mod: -1.1%
Cc1ccc(NCC(=O)N/N=C\c2ccc([N+](=O)[O-])o2)cc1
  TRPML1 blocker: 19 | TRPML1 agonist: 0.3 | D2 agonist: 7.7 | D2 potentiator: 26 | Six1-Eya2 blk: -8 | PINK1 expr mod: 1.6%[38.3 µM]
